Bioassay records from PubChem BioAssay.
AF4-AF9 inh – inhibitors of AF4 peptide binding to AF9, primary screen, biochemical, AlphaScreen, biotin-AF4 peptide, FLAG-AF9, single point | 350,000 tested, 0.47% active | Protein AF-9 (Homo sapiens), P42568 | inhibition, % at 10 µM;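 active = every replicate reaching a set inhibition limit, whatever the replicate mean, cut at about 25% in these data; inconclusive = mean inhibition reaches that limit but some replicates miss it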;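 also: 0% = plate neutral control median and 100% = total signal loss; the record names both 10 and 1 µM as test concentration; the first replicate is given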
Target sequence (P42568 whole entry, looked up): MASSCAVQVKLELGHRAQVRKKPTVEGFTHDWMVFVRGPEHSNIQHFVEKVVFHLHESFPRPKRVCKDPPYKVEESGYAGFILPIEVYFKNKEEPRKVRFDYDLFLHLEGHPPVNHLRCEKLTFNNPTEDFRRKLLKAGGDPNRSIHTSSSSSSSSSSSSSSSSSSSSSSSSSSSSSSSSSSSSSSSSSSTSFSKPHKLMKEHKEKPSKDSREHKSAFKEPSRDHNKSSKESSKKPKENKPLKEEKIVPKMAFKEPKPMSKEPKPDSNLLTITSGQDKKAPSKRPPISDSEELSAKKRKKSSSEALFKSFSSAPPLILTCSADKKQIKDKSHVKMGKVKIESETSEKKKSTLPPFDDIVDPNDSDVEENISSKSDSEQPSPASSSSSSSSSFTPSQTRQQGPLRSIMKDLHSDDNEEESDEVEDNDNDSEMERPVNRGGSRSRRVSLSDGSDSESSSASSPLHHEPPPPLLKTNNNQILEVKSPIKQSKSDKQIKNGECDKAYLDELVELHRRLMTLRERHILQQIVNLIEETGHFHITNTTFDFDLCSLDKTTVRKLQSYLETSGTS
The depositor's hits bear a star; ? = inconclusive; & = joins results of further samples. A portion of the library (hit frequency here may not be typical).

SMILES	AF4-AF9 inh
COC(=O)C(CC#Cc1ccc2c(c1)[C@]1(C(=O)N2)[C@H](c2ccc(OCCO)cc2)N2[C@H](c3ccccc3)[C@H](c3ccccc3)OC(=O)[C@H]2[C@@H]1C(=O)N1CCCCCCC1)C(=O)OC	-2.2
CCC(=O)N1CC[C@@H]2[C@H]1c1cc(-c3ccccc3F)ccc1N(C)[C@@H]2CO	-3.2
COc1ccccc1C#Cc1ccc([C@H]2[C@@H](CO)N3CCCCN(S(C)(=O)=O)C[C@@H]23)cc1	0.7
CCCC(=O)N1CCC2(CC1)CN(Cc1ccc(Cl)cc1)[C@H](CO)c1[nH]c3cc(OC)ccc3c12	-6.8
COc1ccc(NC(=O)N(C)C[C@H]2OCCCC[C@H](C)Oc3ccc(NS(=O)(=O)c4cn(C)cn4)cc3C(=O)N([C@@H](C)CO)C[C@@H]2C)cc1	-2.4
CC(C)NC(=O)NCC[C@H]1CC[C@@H](NS(=O)(=O)c2ccccc2)[C@H](CO)O1	7.0
COc1ccc(CNC(=O)C[C@H]2CC[C@@H](NC(=O)CN(C)C)[C@@H](CO)O2)cc1	-0.3
Cc1cc(C)cc(OCC(=O)OCC(=O)NC2CCCCCC2)c1	-11
O=C1/C(=C/c2ccccc2)CCc2ccc(Cl)nc21	0.0
CCCN1C[C@@H](C)[C@H](OC)CN(C)C(=O)c2cc(NC(=O)Nc3ccccc3F)ccc2OC[C@H]1C	-0.2
CCCC#Cc1ccc([C@H]2[C@@H](CO)N(C(=O)C3CCC3)[C@H]2C#N)cc1	-7.2
Cn1cnc(S(=O)(=O)N2[C@@H]3CNC[C@H]2C3c2ccc(-c3cccnc3)cc2)c1 (stereo not given in full)	-1.7&-0.2
CC(C)C[C@H]1CNC(=S)N1C[C@H]1CCCN1C[C@H](Cc1ccc(O)cc1)N1C[C@H](Cc2ccccc2)N(CC2CCCCCC2)C1=S	?
COc1ccc(S(=O)(=O)N2CCC3(CC2)CN(C(=O)c2cccnc2)[C@H](CO)c2c3c3ccc(OC)cc3n2C)cc1	16
CCC(=O)Nc1ccc2c(c1)OC[C@H](C)N(Cc1ccccc1F)C[C@@H](C)[C@H](OC)CN(C)C2=O	2.0
CCOC(=O)N(C)C[C@H]1OCc2cn(nn2)CCCC(=O)N([C@@H](C)CO)C[C@H]1C	-1.2
Cc1ccc(C(=O)N/N=C/c2cccnc2)cc1Cl	-0.5
C[C@@H]1CN([C@@H](C)CO)C(=O)c2c(c3ccccc3n2C)-c2ccccc2CO[C@@H]1CN(C)C(=O)[C@H]1CCCN1C	1.9
O=C(c1ccncc1)N1C[C@@H]2[C@H](c3ccccc31)[C@H](CO)N2C(=O)c1ccncc1	-0.8
CNc1cnc(-c2ccc(O)c(OC)c2)cn1	1.6
COc1ccc(C#Cc2ccc([C@H]3[C@H]4CN(C(=O)Nc5ccccc5)CCCCN4[C@H]3CO)cc2)cc1	-8.2
CO[C@@H]1CN(C)C(=O)c2cc(NC(C)=O)ccc2OC[C@@H](C)N(C(=O)c2cnccn2)C[C@H]1C	-0.4
COc1ccc(S(=O)(=O)N(C)C[C@@H]2Oc3c(NC(=O)Nc4ccc(F)cc4)cccc3C(=O)N([C@H](C)CO)C[C@@H]2C)cc1	5.9
CN1CCN(C(=O)C[C@@H]2CC[C@@H]3[C@H](COC[C@H](O)CN3Cc3cccc(Cl)c3)O2)CC1	-3.2
CCCC#Cc1cnc2c(c1)C(=O)N([C@@H](C)CO)C[C@H](C)[C@@H](CN(C)C(=O)Nc1ccccc1OC)O2	1.4

In another format: entries from further up
AF4-AF9 inh	SMILES
1.6	CNc1cnc(-c2ccc(O)c(OC)c2)cn1
-8.2	COc1ccc(C#Cc2ccc([C@H]3[C@H]4CN(C(=O)Nc5ccccc5)CCCCN4[C@H]3CO)cc2)cc1

(list continues)
SMILES	AF4-AF9 inh
CC(C)Cc1ccc(-c2cc3nc(NCCOc4ccccc4)ccn3n2)cc1	0.9
Cc1noc(C)c1NC(=O)NCC[C@H]1CC[C@H](NC(=O)Cc2cccnc2)[C@@H](CO)O1	3.8
CC(C)CC#Cc1ccc([C@@H]2[C@@H](CO)N3C(=O)CN(S(=O)(=O)c4cccc(F)c4)C[C@H]23)cc1	4.5
CCCC(=O)Nc1ccc2c(c1)OC[C@@H](C)N(C(=O)c1cccnc1)C[C@@H](C)[C@H](OC)CN(C)C2=O	0.0
CCNC(=O)C[C@H]1C=C[C@H](NS(=O)(=O)c2ccc(F)cc2)[C@@H](CO)O1	-0.4
COc1ccc(CN2CC3(C2)CN(C(=O)CN(C)C)[C@H](CO)c2[nH]c4cc(OC)ccc4c23)cc1	12
C[C@@H]1CN([C@@H](C)CO)C(=O)c2cc(-c3ccncc3)cnc2O[C@H]1CN(C)C(=O)C1CCOCC1	-3.0
C[C@@H]1CN([C@H](C)CO)C(=O)c2cc(NC(=O)NC3CCCCC3)ccc2O[C@@H](C)CCCCO[C@@H]1CN(C)C(=O)C1CCCCC1	-10
C[C@@H]1CN([C@@H](C)CO)C(=O)c2cccc(NC(=O)C3CCCCC3)c2O[C@H]1CN(C)Cc1ccccc1	-1.3
O=C(C[C@@H]1CC[C@H]2[C@@H](COC[C@H](O)CN2Cc2ccc(Cl)cc2)O1)NCc1ccccc1Cl	1.6
COc1ccccc1CNC(=O)C[C@H]1CC[C@@H](NC(=O)CN(C)C)[C@@H](CO)O1	-2.5
CCCN1C[C@@H](C)[C@@H](OC)CN(C)C(=O)c2ccc(NC(=O)Nc3ccccc3F)cc2OC[C@H]1C	1.1
C[C@H]1CCCCO[C@H](CN(C)Cc2ccc(Cl)c(Cl)c2)[C@@H](C)CN([C@@H](C)CO)C(=O)c2cc(NS(=O)(=O)c3ccc(F)cc3)ccc2O1	-1.2
COCCN(C[C@@H]1N[C@@H](CO)[C@H]1c1ccc(-c2ccccc2)cc1)C(C)=O	4.2
C[C@H](CO)N1C[C@H](C)[C@@H](CN(C)Cc2ccccc2)Oc2c(NC(=O)NC3CCCCC3)cccc2C1=O	-3.6
COC(=O)C1(C(=O)OC)C[C@H](/C=C/c2ccccc2)N(Cc2ccccc2OC)[C@@H]1c1cccc(Br)c1	0.8
CO[C@H]1CN(C)C(=O)c2ccc(NC(=O)C3CCC3)cc2OC[C@@H](C)N(Cc2ccccn2)C[C@H]1C	-1.2
OC[C@H]1[C@H](c2ccc(-c3cccc(F)c3)cc2)[C@H]2CN(Cc3cncnc3)CCCCN21	-2.4
C[C@H](CO)N1C[C@H](C)[C@H](CN(C)Cc2ccc(-c3ccccc3)cc2)Oc2ccc(NC(=O)Nc3ccccc3)cc2C1=O	0.6
COc1ccc(-c2ccc(C3[C@H]4CNC[C@@H]3N4S(=O)(=O)c3cccc(Cl)c3)cc2)cc1 (stereo not given in full)	-2.0
CC(C)CC#Cc1ccc2c(c1)O[C@H](CN(C)C(=O)Cc1cccnc1)[C@H](C)CN([C@H](C)CO)S2(=O)=O	3.9
CCCCNc1cccc2c1S(=O)(=O)N[C@@H](Cc1ccccc1)CO2	-4.8
O=C(C[C@@H]1CC[C@@H]2[C@H](COC[C@@H](O)CN2Cc2cc(F)cc(F)c2)O1)Nc1nccs1	7.9
N#C[C@H]1[C@@H](c2ccccc2C2=CCCCC2)[C@@H](CO)N1C(=O)NC1CCCC1	-0.3
C[C@@H]1CN([C@@H](C)CO)C(=O)c2cc(NC(=O)CCC(F)(F)F)ccc2O[C@@H](C)CCCCO[C@H]1CN(C)S(=O)(=O)c1ccc(Cl)cc1	0.8

Arranged by SMILES length (descending): some entries from above.
SMILES	AF4-AF9 inh
C[C@@H]1CN([C@H](C)CO)C(=O)c2cc(NC(=O)NC3CCCCC3)ccc2O[C@@H](C)CCCCO[C@@H]1CN(C)C(=O)C1CCCCC1	-10
CC(C)CC#Cc1ccc2c(c1)O[C@H](CN(C)C(=O)Cc1cccnc1)[C@H](C)CN([C@H](C)CO)S2(=O)=O	3.9
O=C(C[C@@H]1CC[C@H]2[C@@H](COC[C@H](O)CN2Cc2ccc(Cl)cc2)O1)NCc1ccccc1Cl	1.6

More compounds:
SMILES	AF4-AF9 inh
CC1(C(=O)NS(=O)(=O)c2cccc(Cl)c2)CCN1C(=O)CCc1ccc(Cl)cc1Cl (stereo not given)	-4.6
CO[C@@H]1CN(C)C(=O)c2cc(NC(=O)c3ccc4c(c3)OCO4)ccc2OC[C@@H](C)N(CCC(F)(F)F)C[C@H]1C	-4.9
O=C(C[C@@H]1C[C@H]2c3cc(NC(=O)c4ccc5c(c4)OCO5)ccc3O[C@H]2[C@H](CO)O1)NCCN1CCCCC1	4.7
C[C@@H]1CN([C@H](C)CO)C(=O)Cc2cc(NC(=O)CCCCCC(=O)Nc3ccccc3N)ccc2O[C@@H]1CN(C)Cc1ccc2c(c1)OCO2	5.8
COc1ccc(NC(=O)N(C)C[C@@H]2Oc3c(NC(=O)Nc4ccc(F)cc4)cccc3C(=O)N([C@H](C)CO)C[C@@H]2C)cc1	10
COc1cc(C)c2c(c1OC)C(=O)CC2	2.6
COc1ccc(C(O)c2nc(-c3cc(F)cc(Cl)c3)cs2)cc1 (stereo not given)	-2.3
Cc1cccc(-c2ccc([C@@H]3[C@@H](CO)N4CCCCN(S(=O)(=O)c5cccc(C)c5)C[C@@H]34)cc2)c1	-4.5
COc1ccccc1NC(=O)N[C@H]1CC[C@H](CCNS(=O)(=O)c2ccc(Cl)cc2)O[C@H]1CO	0.8
CCNC(=O)Nc1ccc2c(c1)C(=O)N(C)[C@@H]1CC[C@@H](CC(=O)N[C@H](C)c3ccccc3)O[C@H]1CO2	-1.6
O=C(CN1CCN(S(=O)(=O)c2ccc(Cl)c(C(F)(F)F)c2)CC1)NC(=O)NC1CCCCC1	-0.1
CO[C@@H]1CN(C)C(=O)c2ccc(NC(=O)C3CC3)cc2OC[C@H](C)N(C(=O)c2ccccc2)C[C@@H]1C	-0.7
O=C(Nc1ccc(F)cc1)N1CC(=O)N2[C@H](CO)[C@H](c3ccc(-c4ccc(F)cc4)cc3)[C@H]2C1	3.0
CC1(C(=O)NS(=O)(=O)c2cccc(Cl)c2)CCN1C(=O)Cc1ccsc1 (stereo not given)	-1.5
Cc1ccc(S(=O)(=O)N(C)C[C@@H]2OCCCC[C@@H](C)Oc3ccc(NS(=O)(=O)c4c(C)noc4C)cc3C(=O)N([C@@H](C)CO)C[C@H]2C)cc1	1.5
Cc1ccccc1S(=O)(=O)NC(=O)C1(C)CCN1C(=O)CCc1ccccc1 (stereo not given)	-1.0
COc1cccc(S(=O)(=O)N2C[C@H](O)COC[C@H]3O[C@H](CC(=O)N4CCOCC4)CC[C@@H]32)c1	-1.9
O=C(Nc1ccc2c(c1)[C@@H]1C[C@H](CC(=O)N3CCc4ccccc4C3)O[C@@H](CO)[C@@H]1O2)NC1CCCC1	0.1
COc1ccc(S(=O)(=O)N2CCCCN3[C@H](C2)[C@H](c2ccc(C4=CCCCC4)cc2)[C@@H]3CO)cc1	-5.0
CNC[C@H]1OCCCC[C@H](C)Oc2ccc(NC(=O)NC(C)C)cc2C(=O)N([C@@H](C)CO)C[C@@H]1C	-33
CCCNC(=O)N[C@H]1CC[C@H](CC(=O)N2CCN(C)CC2)O[C@@H]1CO	2.5
O=C(C[C@@H]1C=C[C@@H](NC(=O)c2ccccn2)[C@@H](CO)O1)NCc1cccc(F)c1	-2.8
Cc1ccc(S(=O)(=O)Nc2cccc3c2O[C@@H](CN(C)CC2CCCCC2)[C@@H](C)CN([C@H](C)CO)C3=O)cc1	3.4
CC(C)NC(=O)Nc1ccc2c(c1)CC(=O)N([C@H](C)CO)C[C@@H](C)[C@H](CN(C)S(=O)(=O)c1ccc(F)cc1)O2	0.0
CCCNC(=O)C[C@H]1CC[C@@H]2[C@H](COC[C@@H](O)CN2C(=O)c2ccccn2)O1	0.7&-2.8
The list continues.
SMILES	AF4-AF9 inh
CCC(=O)N1CC[C@H]2[C@@H]1c1cc(-c3ccc(F)cc3)ccc1N(C)[C@H]2CO	0.1
C[C@@H]1CN([C@H](C)CO)C(=O)c2cc(NS(=O)(=O)c3ccc(Cl)cc3)ccc2O[C@H]1CN(C)Cc1ccc2c(c1)OCO2	0.7
C[C@@H]1CCCCO[C@@H](CN(C)CC2CCCCC2)[C@H](C)CN([C@H](C)CO)C(=O)c2cc(NC(=O)Cc3ccccc3)ccc2O1	-3.2
COc1ccccc1C#Cc1ccc2c(c1)O[C@H](CN(C)C)[C@H](C)CN([C@H](C)CO)S2(=O)=O	9.4
Cc1ccc(S(=O)(=O)N(C)C[C@H]2Oc3cc(-c4cccc(F)c4)ccc3S(=O)(=O)N([C@H](C)CO)C[C@H]2C)cc1	-1.7
C[C@@H]1CN([C@@H](C)CO)S(=O)(=O)c2ccc(C#C[C@@H](C)O)cc2O[C@H]1CN(C)Cc1ccncc1	-0.2
CC(C)NC(=O)N1CC2(C1)[C@H](c1ccccc1)[C@@H](CO)N2CCC(F)(F)F	0.3
CC(=O)Nc1ccc(CN2CCC2(C)C(=O)NC2CCN(Cc3ccccc3)CC2)cc1 (stereo not given)	-0.5
COc1cccc(-c2cnc3c(c2)C(=O)N([C@H](C)CO)C[C@H](C)[C@H](CN(C)C(=O)NC2CCCCC2)O3)c1	-1.9
C[C@@H]1CCCCO[C@@H](CN(C)C(=O)c2ccccc2)[C@@H](C)CN([C@@H](C)CO)C(=O)c2cc(NC(=O)Nc3cccc4ccccc34)ccc2O1	0.4
O=C(Nc1ccc(F)cc1)N[C@@H]1C=C[C@@H](CC(=O)N2CCOCC2)O[C@@H]1CO	-17

Of the compounds above, these contain two or more sulfur atoms:
SMILES	AF4-AF9 inh
CC(C)C[C@H]1CNC(=S)N1C[C@H]1CCCN1C[C@H](Cc1ccc(O)cc1)N1C[C@H](Cc2ccccc2)N(CC2CCCCCC2)C1=S	?
CC1(C(=O)NS(=O)(=O)c2cccc(Cl)c2)CCN1C(=O)Cc1ccsc1 (stereo not given)	-1.5
Cc1ccc(S(=O)(=O)N(C)C[C@@H]2OCCCC[C@@H](C)Oc3ccc(NS(=O)(=O)c4c(C)noc4C)cc3C(=O)N([C@@H](C)CO)C[C@H]2C)cc1	1.5
Cc1ccc(S(=O)(=O)N(C)C[C@H]2Oc3cc(-c4cccc(F)c4)ccc3S(=O)(=O)N([C@H](C)CO)C[C@H]2C)cc1	-1.7
